VACV Venus inh: inhibitors of vaccinia virus (Venus reporter); 330,000 tested, 0.46% active; AID 720580; Potency, µM (highest dose often 36.5 µM), for the others: at the top dose activity change, negative = inhibition, most hits filed as inhibitors; Vaccinia virus Venus reporter expression, fluorescence; active means well fitted inhibition curve with a large enough effect; inconclusive means small, poorly fitted or top-dose-only effect; inactive means no such curve, though single readings can be large or run the other way; tested in A549 cells; further: nearly all actives have a fitted effect of over 30% in size; inactives centre near -10
Vaccinia mCherry: inhibitors of vaccinia virus infection (mCherry reporter signal) | Vaccinia virus mCherry reporter infection, fluorescence; about a quarter of the inactives have no number | 310,000 tested, 0.63% active | Potency, µM (highest dose often 36.5 µM), for inactives: at the top dose activity change, negative = inhibition, usual class: inhibitors; active = well fitted inhibition curve with a large enough effect; inconclusive = small, poorly fitted or top-dose-only effect; inactive = no such curve, though single readings can be large or run the other way; tested in A549 cells; further: nearly all actives have a fitted effect of over 35% in size; inactives centre near -10
Active calls of the source: *; i = inactive; ? = inconclusive; . = not tested or not shown; [ ] = dose if it differs, or a comment. On the % scale 0 is the no-effect control and ±100 the full control effect; potency means the concentration at half of the fitted maximal effect.

SMILES	VACV Venus inh	Vaccinia mCherry
COc1ccc(S(=O)(=O)NCC(c2cccnc2)N2CCN(c3ccc(F)cc3)CC2)cc1C (centres undefined)	?	.
Nc1ccc(C(=O)OCC(=O)NC2CCCc3ccccc32)cc1[N+](=O)[O-] (centres undefined)	-5.1%	-17.1%
CNc1nc(SC)nc2ccccc12	-11.8%	i
O=C(CCCc1nc(-c2ccc(Cl)cc2)no1)NCC1CCCO1 (centres undefined)	-22.9%	?
CC(=O)NS(=O)(=O)c1ccc(NS(=O)(=O)c2ccc3ccccc3c2)cc1	-3.6%	i
O=C1CC2(CCN(C(=O)c3ccccc3F)CC2)Oc2ccccc21	-6.5%	-12.6%
O=C(Nc1cccc(Br)c1)N1CCC(CN2CCCCCC2)CC1	-11.6%	-11.1%
Cc1ccc(NC(=O)CSc2nc3ccc(NC(=O)CCc4ccccc4)cc3s2)cc1	0.6%	0.7%
Cc1cc(OC(=O)c2cc(Br)ccc2Cl)c([N+](=O)[O-])c(=O)[nH]1	-3.1%	-5.9%
N/C(=N\OC(=O)c1ccccc1Cl)c1cccnc1	-21.2%	.
O=C(O)COc1ccccc1/C=N/Nc1ccc(S(=O)(=O)N2CCOCC2)cc1[N+](=O)[O-]	-10.4%	-15.4%
CC(=O)c1c(C)nc(C)nc1NC(=O)C(C)C	-0.2%	-7.9%
Cn1c(NC(=O)c2ccc(S(=O)(=O)N3CCOCC3)cc2)cc(=O)n(C)c1=O	-4.5%	-12.6%
COc1ccccc1-c1nc2cc(Cl)ccc2c(=O)n1O	-12.1%	-29.1%
CCN(C(=O)CSc1nnc(-c2ccc(C)cc2)n1N)c1c(N)n(Cc2ccccc2)c(=O)[nH]c1=O	-13.9%	-9.6%
CC(=O)N1CCCc2cc(S(=O)(=O)Nc3cccc(C)c3C)ccc21	-20.4%	-12.3%
O=C(C1CCCN(Cc2ccccc2C(F)(F)F)C1)N1CCCCC1 (centres undefined)	-2.9%	-3.6%
CCOC(=O)N1CCC(N(CCN(C)C)C(=S)Nc2cc(Cl)cc(Cl)c2)CC1	-9.5%	-7.2%
CCOc1ccccc1N1C(=O)CC(Sc2ncccc2C(=O)O)C1=O (centres undefined)	-11.2%	-14.6%
CCN(CC)CCCNC(=O)CNC(=O)c1nn(-c2ccc(OC)c(OC)c2)c(=O)c2ccccc12	-8.3%	-12.1%
COc1ccc(NC(=O)c2ccc3[nH]c(C)cc(=O)c3c2)cc1	-15.1%	-9.4%
Cc1ccn(CCC(=O)N2CCCC(CCC(=O)NCc3ccc(F)c(F)c3)C2)n1 (centres undefined)	-9.4%	-23.9%
CN(C)Cc1ccccc1C(O)(c1ccccc1)c1ccccc1	-11.4%	-1.5%
CN(C=O)c1cc([N+](=O)[O-])ccc1OCc1ccccc1	-2.1%	-13.0%
COc1ccc(C(=O)NNC(=O)Cn2nc(C)cc2C)cc1S(=O)(=O)N1CCOCC1	2.1%	-2.4%

Next entries follow:
SMILES	VACV Venus inh	Vaccinia mCherry
NS(=O)(=O)c1ccc(NC(=O)c2ccc(OCC3CCCO3)cc2)cc1 (centres undefined)	2.7%	-14.0%
COc1ccc(OCCSc2ncnc3nc[nH]c23)cc1	-10.6%	-13.8%
Cc1ccc(-c2c(CN3CCN(c4cc(C)ccc4C)CC3)csc2C)cc1	-11.7%	i
Cc1ccc(C(=O)N/N=C\c2ccc([N+](=O)[O-])s2)cn1	-26.3%	-3.0%
CC(C)c1ccc2oc(=O)cc(CN3CCN(c4ccc(F)cc4)CC3)c2c1	?	.
N=c1c(C(=O)NCc2ccc(F)cc2)cc2c(=O)n3ccccc3nc2n1Cc1ccco1	-4.1%	-17.9%
Cc1cccc(OCC(=O)Nc2cccc(C(=O)NCC(C)C)c2)c1	-10.3%	-4.5%
Cc1cccc(C)c1NC(=O)Cn1nnnc1N	1.4%	i
Cc1sc2nc(CN3CCN(S(=O)(=O)c4cccc5nonc45)CC3)[nH]c(=O)c2c1C	-11.6%	-8.9%
O=C(NCc1cccs1)c1ccc([N+](=O)[O-])cc1Cl	2.5%	-14.2%
O=C(Cn1c(Cn2c(-c3cnccn3)nc3ccccc32)nc2ccccc21)c1ccc(OC(F)(F)F)cc1	10.9%	50.8%[activator]
CCC1S/C(=N/N=C/c2ccco2)N(c2ccc(F)cc2)C1=O (centres undefined)	-2.6%	-20.5%
Cc1nn(C)cc1S(=O)(=O)N1CCN(c2ccccc2)CC1	-7.5%	i
Cc1ccc(NC(=O)CSc2nnc(Cc3ccccc3)o2)cc1	-12.1%	-3.2%
Cc1ccc(Cl)cc1NC(=O)CON=C(N)c1ccccc1	-11.8%	-12.7%
Cc1ccc(Nc2nnc(SCC(=O)Nc3ncc(C(F)(F)F)cc3Cl)s2)cc1	-10.2%	i
O=C(CCC(=O)c1cccs1)NCc1cccnc1	-3.4%	-4.0%
CCc1c(O)nc(SCC(=O)Nc2c(C)cccc2C)n(-c2ccc(F)cc2)c1=O	-14.4%	?
O=C(COC(=O)c1cccc(Oc2ccccc2)c1)NCc1ccco1	0.0%	-12.3%
C[C@]1(OC(=O)/C=C/c2ccccc2)C[C@@H](O)[C@]2(O)C=CO[C@@H](O[C@@H]3O[C@H](CO)[C@@H](O)[C@H](O)[C@H]3O)[C@@H]21	-6.9%	i
CCOC(=O)N1CCN(Cc2nc3cc(NC(=O)CC)ccc3n2C)CC1	-15.4%	-9.1%
CCOc1ccc(NC(=O)c2ccc3[nH]c(C)cc(=O)c3c2)cc1	-14.1%	-9.2%
CC(=O)Nc1cccc(Oc2cc(C#N)c(C#N)cc2N2CCOCC2)c1	-23.9%	-12.0%
CCc1ccc(-c2cn3nc(CC)sc3n2)cc1	-4.2%	-12.6%
CCOc1cccc(C(=O)NC(=S)NCc2cccnc2)c1	-9.4%	-18.1%

Single values from the list.
COc1ccc(OCCSc2ncnc3nc[nH]c23)cc1 | VACV Venus inh = -10.6%
Cc1ccc(NC(=O)CSc2nnc(Cc3ccccc3)o2)cc1 | VACV Venus inh = -12.1%
N=c1c(C(=O)NCc2ccc(F)cc2)cc2c(=O)n3ccccc3nc2n1Cc1ccco1 | Vaccinia mCherry = -17.9%

Additional results follow:
SMILES	VACV Venus inh	Vaccinia mCherry
COc1ccccc1NC(=O)N(C)C[C@H]1Oc2ncc(C#CCN(C)C)cc2C(=O)N([C@H](C)CO)C[C@H]1C	-9.1%	i
CCc1noc(C)c1C(=O)N(C)CC(=O)Nc1ccc(OC)cc1	-1.6%	-14.5%
COc1ccc(/C=C(\C#N)c2n[nH]c(Cn3cncn3)n2)cc1	-2.7%	-7.5%
O=C(CSc1ccccc1Cl)N1CCC(c2nc3ccccc3s2)CC1	?	.
CCC(CC)C(=O)N(C)c1c(C)nc2c(OCCC3CCCCC3)cccn12	-18.1%	8.2%
Cc1[nH]n(-c2ccccc2)c(=O)c1C=Nc1cccc2cccnc12	?	12.6µM*
COc1ccc(-c2csc(C(O)c3ccc(F)c(OC)c3)n2)cc1 (centres undefined)	-29.6%	-21.0%
Cc1ccc2nc(N3C(=O)C(O)=C(C(=O)c4ccco4)C3c3ccc(C)o3)sc2c1 (centres undefined)	-2.0%	?
c1ccc(NNC2=NCCS2)cc1	-2.2%	?
O=C(NCc1ccc(F)cc1)C1(S(=O)(=O)c2ccc(Cl)cc2)CC1	8.0%	-2.1%
O=c1cc2c(nn1Cc1ccc(Cl)cc1Cl)-c1ccccc1CC2	-27.0%	?
O=C(C(=C1NCCN1)n1cncn1)c1ccccc1	3.3%	-8.3%
COc1ccc(CCN2C(=O)CC(N3CCN(S(=O)(=O)c4ccccc4)CC3)C2=O)cc1OC (centres undefined)	-1.4%	i
CC1CCN(C(=O)C2CCN(C(=O)c3ccc(C(C)(C)C)cc3)CC2)CC1	-13.0%	-26.2%
CC(C)C(O)(C#CCN1CCCCC1)c1ccccc1 (centres undefined)	-5.9%	i
Cc1ccccc1CN1CCN(CC(=O)NCCCN2CCN(c3ccc(F)cc3)CC2)C1=O	-27.1%	.
CCCCn1c(N2CCC(Cc3ccccc3)CC2)nc2c1c(=O)[nH]c(=O)n2C	?	.
CCOC(=O)c1sc(NC(=O)c2c(OC)cccc2OC)nc1C	-18.1%	.
O=C(CNC(=O)c1ccc(F)cc1)N/N=C/c1cn[nH]c1-c1ccccc1	-23.4%	i
Cn1c2ccccc2c2c(C(=O)N3CCN(c4cccc(C(F)(F)F)c4)CC3)cn(C3CCCCC3)c(=O)c21	-18.9%	-11.7%
O=C(NC(c1ccccc1)C(Cl)Cl)c1ccccc1 (centres undefined)	-12.2%	-7.3%
CC(=O)N/C(=C\c1ccccc1)C(=O)NCc1ccc2c(c1)OCO2	-8.2%	-21.4%
C=CCSc1nc(C)c(CC=C)c(=O)[nH]1	-5.7%	1.0%
CCOc1cc(C2c3c(-c4cc(C)ccc4O)n[nH]c3C(=O)N2CCCOC(C)C)ccc1O (centres undefined)	-6.6%[7.34 µM]	-5.3%[7.34 µM]
O=C(O)COc1ccccc1/C=C1\SC(=O)N(Cc2ccc(F)cc2)C1=O	-4.2%	-15.4%

Next compounds follow.
SMILES	VACV Venus inh	Vaccinia mCherry
CCOCCCNC(=O)C1CCCN(c2ncnc3onc(C)c23)C1 (centres undefined)	-14.8%	-13.7%
CCCNC(=O)c1ccccc1NC(=O)c1ccc(CSc2ccccc2)cc1	-29.8%	.
C=CCc1ccc(OCCCOc2ccc(C)cc2OC)c(OC)c1	-0.5%	-10.6%
COc1ccc(OC)c(/C=N/Nc2nncn2/N=C/c2cc(OC)ccc2OC)c1	-24.1%	-4.0%
CCOc1ccc(-n2c(=O)c3c(C)c(C)sc3n(CC(=O)N(CC)Cc3ccccc3)c2=O)cc1	-11.7%	-28.0%
COc1ccc(S(=O)(=O)N(CC(=O)NC2CC2)c2ccc(C)cc2)cc1OC	-15.1%	i
Cc1ccc(-n2c(C)nc3ncnc(-c4ccccc4)c32)cc1	-18.0%	-2.7%
CCC12CCC3c4ccc(O)cc4CCC3C1CC(O)C2O (centres undefined)	-26.2%	i
O=C(COC(=O)CNC(=O)c1ccc(Cl)cc1Cl)NCc1ccco1	0.8%	-13.9%
N#CC(C#N)=C1C=CC=CN1/C(=C\c1ccco1)C(=O)c1ccccc1	?	?
COc1ccc(C(=O)Oc2cc(C)[nH]c(=O)c2[N+](=O)[O-])cc1	5.7%	i
CC(=O)Nc1ccccc1C(=O)OCC(=O)c1ccc2c(c1)OCCO2	-0.5%	-20.4%
COC(=O)N=Nc1c(O)[nH]c2ccc(Br)cc12	-10.2%	-27.8%
Cc1ccc(C)c2sc(N3CCN(C(=O)c4ccco4)CC3)nc12	-7.2%	i
Cc1cc(C)nc(SCc2ccc(C(=O)NNC(=O)Nc3cccc(Cl)c3)cc2)n1	11.2µM*	14.1µM*
O=C1Nc2ccccc2N(O)N1c1ccc(Cl)cc1	-9.7%	i
CCS(=O)(=O)N1CCc2cc(C(=O)Nc3cc(C)cc(C)c3)ccc21	-5.4%	-18.5%
CS(=O)(=O)c1ccc2nc(NC(=O)Oc3ccccc3)sc2c1	-9.5%	-13.3%
O=C(c1ccc(CNS(=O)(=O)c2ccc(F)cc2)cc1)N1CCCCCC1	-23.0%	-10.2%
COc1ccc2c(c1)CC/C2=N\OC(=O)c1ccccc1C	-20.4%	-13.8%
COc1cccc(NC(=O)Cn2c3ccc(F)cc3c3nc4n(c(=O)c32)CCS4)c1	-4.7%	-8.4%
COc1ccccc1S(=O)(=O)N(C)C[C@H]1Oc2cc(C#CCC3CCCC3)ccc2S(=O)(=O)N([C@H](C)CO)C[C@H]1C	-26.2%	-18.2%
COc1ccc(-c2csc(C(O)c3ccc(F)cc3)n2)cc1OC (centres undefined)	-13.3%	i
COc1cc(CN2CCCC(CO)(Cc3ccccc3C)C2)cc2c1OCO2 (centres undefined)	2.4%	-15.9%
N#Cc1cccc(CN2C=NS(=O)(=O)c3ccccc32)c1	-1.3%	i

Reformatted with two lines to a compound: part of the list above.
Below each compound: VACV Venus inh, Vaccinia mCherry
O=C1Nc2ccccc2N(O)N1c1ccc(Cl)cc1
 : -9.7%, i
COc1ccc(S(=O)(=O)N(CC(=O)NC2CC2)c2ccc(C)cc2)cc1OC
 : -15.1%, i

(cont.)
SMILES	VACV Venus inh	Vaccinia mCherry
CCOc1ccc(S(=O)(=O)N2CCOCC2)cc1NC(=O)C1CCC1	-15.5%	i
CCOC(=O)C1=C(C)NC(=O)NC1C(C)C (centres undefined)	-4.8%	i
Cc1nc(N(C)C)c2sc(=S)n(C)c2n1	4.8%	0.5%
CCN1C(=O)c2ccccc2Sc2ccc(NC(=O)Cc3ccc(OC)c(OC)c3)cc21	?	?
C=CCn1c(SCC(=O)N2c3ccccc3Sc3ccccc32)nnc1-c1ccco1	-17.0%	-29.8%
Cn1cc(S(=O)(=O)N2CCCC2)cc1C(=O)N1CCN(c2ccccc2)CC1	-8.6%	2.7%
COc1ccc(NC(=O)C2CCCN(S(C)(=O)=O)C2)cc1 (centres undefined)	-1.5%	-11.4%
COc1ccc(/C=N/NC(=O)c2cccc(C(F)(F)F)c2)cc1	-4.2%	-14.0%
Cc1ccc(OCCC(=O)N(Cc2ccccc2)c2c(N)n(Cc3ccccc3)c(=O)[nH]c2=O)cc1	-20.6%	-6.7%
N#CCCN(C(=O)Nc1ccc(Cl)c(Cl)c1)C1CCCCC1	?	i

Some of the entries so far, as labelled records:
N#CCCN(C(=O)Nc1ccc(Cl)c(Cl)c1)C1CCCCC1
  VACV Venus inh: ?
  Vaccinia mCherry: i

Cc1ccc(OCCC(=O)N(Cc2ccccc2)c2c(N)n(Cc3ccccc3)c(=O)[nH]c2=O)cc1
  VACV Venus inh: -20.6%
  Vaccinia mCherry: -6.7%

COc1ccc(/C=N/NC(=O)c2cccc(C(F)(F)F)c2)cc1
  VACV Venus inh: -4.2%
  Vaccinia mCherry: -14.0%

CCOc1ccc(S(=O)(=O)N2CCOCC2)cc1NC(=O)C1CCC1
  VACV Venus inh: -15.5%
  Vaccinia mCherry: i

Not a hit list; overall some 0.88% were active at least once.
